DUX4 txn inh: inhibitors of DUX4-driven ZSCAN4 reporter expression, primary screen, 293T cells, Gaussia and Italica luciferase | actives 0.8% (n = 37,000) | 293T-iDUX4 ZSCAN4-Gaussia luciferase reporter, 24 h; active compounds read low | AID 1224904, 2016 | activity change, negative = inhibition, % (concentration not given with the values);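 active means -10% or lower and over 25 points stronger than a control reporter; inconclusive means -10% or lower with a smaller gap; inactive means above -10%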;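 further: 0% = median of neutral control wells and -100% = median of positive control wells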
DUX4 txn inh difference: also measured in DUX4 txn inh; calls as there; Gaussia minus Italica difference, %; measured here: selective DUX4 reporter inhibition;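 worked out from the two reporters; negative = selective loss of the DUX4 reporter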
DUX4 txn inh control: also measured in DUX4 txn inh; calls as there; activity change, negative = inhibition, %; measured here: Italica tet-on control reporter;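 0 = neutral control and -100 = positive control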
Active calls of the source: *; ? = inconclusive; · = no result given. The list is partial. The share of hits here may be higher or lower than overall.

nr | mol | DUX4 txn inh | DUX4 txn inh difference | DUX4 txn inh control
1 | C[C@@H]1CN([C@H](C)CO)C(=O)c2cc(-c3ccccc3)cnc2O[C@@H]1CN(C)C(=O)c1ccccn1 | 9 | 11 | -2.1
2 | CN(C)C(=O)c1cccc(-c2ccc([C@@H]3[C@@H](CO)N4CCCCN(Cc5cccnc5)C[C@@H]34)cc2)c1 | 5 | 5 | -0.4
3 | Cc1ccc(S(=O)(=O)Nc2ccc3c(c2)C(=O)N([C@H](C)CO)C[C@@H](C)[C@@H](CN(C)Cc2ccc(C(F)(F)F)cc2)O3)cc1 | 0 | 0 | 0.0
4 | OC[C@H]1[C@@H](c2ccc(C#CC3(O)CCCC3)cc2)[C@H]2CN(Cc3cncnc3)CCCCN21 | 13 | 0 | 13
5 | O=C(Cc1ccccn1)N[C@H]1CC[C@H](CCn2cc(-c3ccc(F)cc3)nn2)O[C@H]1CO | 0 | 0 | -0.3
6 | O=C(O)[C@H]1[C@H](CO)[C@H]2Cn3c(cccc3=O)[C@H]2N1C(=O)NC1CCCC1 | -3 | -6 | 3.1
7 | CCCNC(=O)NC[C@H]1[C@H](c2ccc(C3=CCCC3)cc2)[C@@H](CO)N1C(=O)CC | 0 | -1 | 0.8
8 | O=C(C[C@@H]1CC[C@@H]2[C@H](COC[C@H](O)CN2C(=O)c2cc(Cl)cc(Cl)c2)O1)N1CCc2ccccc2C1 | ? | · | ·
9 | O=C(C[C@H]1CC[C@H]2[C@@H](COC[C@H](O)CN2Cc2cccc(Cl)c2)O1)NCC1CCCCC1 | ? | · | ·
10 | COc1ccc(NC(=O)N(C)C[C@@H]2Oc3ccc(NC(=O)CCN4CCOCC4)cc3C(=O)N([C@@H](C)CO)C[C@H]2C)cc1 | -1 | 0 | -1.4
11 | C[C@@H]1CN([C@H](C)CO)C(=O)c2cc(NC(=O)Nc3ccc(C(F)(F)F)cc3)ccc2O[C@@H](C)CCCCO[C@H]1CN(C)S(=O)(=O)c1ccc(Cl)cc1 | 3 | 3 | -0.2
12 | COc1ccc(S(=O)(=O)N2CC3(CN(C(=O)CN(C)C)[C@H](CO)c4c3c3ccc(OC)cc3n4C)C2)cc1 | 9 | 28 | -19
13 | CCc1nc(N2[C@@H](C#N)[C@@H](c3ccccc3-c3ccc(F)cc3)[C@@H]2CO)sc1C | 1 | 2 | -1.1
14 | COc1ccc(NC(=O)N2C[C@@H](O)COC[C@@H]3O[C@H](CC(=O)N4CCCCC4)CC[C@H]32)cc1 | 0 | -10 | 10
15 | COc1cccc(S(=O)(=O)N2C[C@H](O)COC[C@@H]3O[C@H](CC(=O)NCCCN4CCOCC4)CC[C@H]32)c1 | 9 | 4 | 4.6
16 | CO[C@@H](CN(C)Cc1nccs1)[C@H](C)CN([C@@H](C)CO)S(=O)(=O)c1ccc(F)cc1 | -3 | 0 | -2.4
17 | CCNC(=O)Nc1ccc2c(c1)C(=O)N(C)[C@H]1CC[C@H](CC(=O)NCCN3CCCC3)O[C@H]1CO2 | 5 | 1 | 3.6
18 | COc1cccc(S(=O)(=O)N2C[C@H](O)COC[C@H]3O[C@H](CC(=O)N4CCN(c5ccccc5)CC4)CC[C@@H]32)c1 | 10 | 10 | -0.4
19 | CCN1[C@@H]2c3ccc(C4=CCCC4)c(=O)n3C[C@H]1[C@H](CO)[C@H]2C(=O)NCc1ccccn1 | -1 | -1 | 0.5
20 | Cc1ccccc1S(=O)(=O)N1C[C@H](O)COC[C@H]2O[C@@H](CC(=O)N3CCCCC3)CC[C@@H]21 | 3 | -2 | 4.3
21 | COCC(=O)N1[C@@H](CO)[C@@H](c2ccccc2)C12CN(Cc1cc(F)ccc1F)C2 | -5 | -15 | 10
22 | C[C@@H]1CN([C@H](C)CO)C(=O)c2ccccc2-c2ccccc2CO[C@H]1CN(C)C(=O)c1ccc(F)cc1 | 15 | 1 | 14
23 | CNC[C@H]1Oc2ccc(NC(=O)Nc3ccc(F)cc3)cc2C(=O)N([C@H](C)CO)C[C@H]1C | -1 | 0 | -1.3
24 | CC=Cc1ccc2n(c1=O)C[C@H]1[C@H](CO)[C@@H](C(=O)NC3CCCC3)N(C(=O)C3CC3)[C@@H]21 (mixture of isomers) | 2 | 3 | -0.1
25 | C/C=C/c1ccc([C@H]2[C@H]3CN(S(=O)(=O)c4ccccc4)CC(=O)N3[C@H]2CO)cc1 | 5 | -1 | 5.7
26 | CO[C@@H]1CC[C@@H]2CCOc3c(C#N)cccc3C(=O)N(C)[C@H](C)C(=O)N(C)C[C@@H]1O2 | 0 | -1 | 1.4
27 | CNC[C@H]1Oc2ccc(NC(=O)C3CCCCC3)cc2C(=O)N([C@H](C)CO)C[C@H]1C | 0 | -4 | 4.1
28 | Cc1noc(C)c1S(=O)(=O)N(C)C[C@@H]1OCCCC[C@H](C)Oc2ccc(NC(=O)Nc3cccc4ccccc34)cc2C(=O)N([C@H](C)CO)C[C@H]1C | 1 | -2 | 3.2
29 | COc1ccc2c3c([nH]c2c1)[C@@H](CO)N(C)CC31CCN(C(=O)c2ccccn2)CC1 | 15 | 23 | -7.6
30 | OC[C@H]1N[C@@H](CNCC2CCC2)[C@@H]1c1ccc(C2=CCCCC2)cc1 | -3 | 0 | -3.4

The final 4 records of the part above are carried over, then new ones follow.
nr | mol | DUX4 txn inh | DUX4 txn inh difference | DUX4 txn inh control
27 | CNC[C@H]1Oc2ccc(NC(=O)C3CCCCC3)cc2C(=O)N([C@H](C)CO)C[C@H]1C | 0 | -4 | 4.1
28 | Cc1noc(C)c1S(=O)(=O)N(C)C[C@@H]1OCCCC[C@H](C)Oc2ccc(NC(=O)Nc3cccc4ccccc34)cc2C(=O)N([C@H](C)CO)C[C@H]1C | 1 | -2 | 3.2
29 | COc1ccc2c3c([nH]c2c1)[C@@H](CO)N(C)CC31CCN(C(=O)c2ccccn2)CC1 | 15 | 23 | -7.6
30 | OC[C@H]1N[C@@H](CNCC2CCC2)[C@@H]1c1ccc(C2=CCCCC2)cc1 | -3 | 0 | -3.4
31 | C[C@H]1CC=CC[C@H](c2ccc3c(c2)OCO3)NC(=O)[C@H](C)N(C)C(=O)c2ccccc2O1 (mixture of isomers) | -2 | 0 | -1.9
32 | COCC#Cc1ccc2c(c1)O[C@@H](CN(C)Cc1ccc3c(c1)OCO3)[C@@H](C)CN([C@@H](C)CO)S2(=O)=O | 2 | 7 | -5.5
33 | COc1ccccc1NC(=O)N[C@H]1CC[C@H](CCn2cc(-c3cccnc3)nn2)O[C@@H]1CO | 6 | 5 | 1.6
34 | COCC(=O)N(C)C[C@@H]1Oc2cc(C#CC(C)(C)O)ccc2S(=O)(=O)N([C@H](C)CO)C[C@@H]1C | 0 | -1 | 0.8
35 | CN1CCN(C(=O)C[C@@H]2CC[C@H]3[C@@H](COC[C@@H](O)CN3C(=O)C3CCCC3)O2)CC1 | 7 | 1 | 6.8
36 | COc1ccc(NC(=O)Nc2ccc3c(c2)[C@@H]2C[C@@H](CC(=O)NCc4ccccc4F)O[C@H](CO)[C@@H]2O3)cc1 | 1 | -3 | 4.4
37 | C[C@H]1CN([C@@H](C)CO)C(=O)c2ccccc2-c2ccccc2CO[C@@H]1CN(C)S(=O)(=O)c1cccc(F)c1 | 5 | -2 | 7.8
38 | COc1ccc(NC(=O)N2C[C@@H]3[C@H](c4ccccc42)[C@H](CO)N3C(=O)C2CC2)cc1 | 3 | -4 | 6.8
39 | C/C=C/c1ccc([C@@H]2[C@H](CO)N(S(C)(=O)=O)[C@H]2CN(C)C(=O)CC)cc1 | 1 | -1 | 1.5
40 | O=C(C[C@H]1C=C[C@H](NC(=O)c2ccncc2)[C@@H](CO)O1)NCC1CC1 | ? | · | ·
41 | N#Cc1ccc(-c2ccc([C@H]3[C@H]4CN(C(=O)Nc5ccc(F)cc5)CCCCN4[C@H]3CO)cc2)cc1 | 39 | 24 | 15
42 | COc1ccc(NC(=O)N(C)C[C@@H]2OCc3ccccc3-c3c(n(C)c4ccccc34)C(=O)N([C@H](C)CO)C[C@H]2C)cc1 | 20 | 14 | 6.6
43 | CO[C@H]1CC[C@@H]2CCOc3c(C#N)cccc3C(=O)N(C)C[C@@H](OC)[C@@H](C)C(=O)N(C)C[C@@H]1O2 | 7 | 1 | 5.5
44 | CNC[C@H]1Oc2ccc(NS(=O)(=O)c3ccc(OC)cc3)cc2C(=O)N([C@@H](C)CO)C[C@H]1C | 0 | 2 | -2.6
45 | COc1cccc(NC(=O)N(C)C[C@H]2Oc3cc(C#Cc4ccncc4)ccc3S(=O)(=O)N([C@H](C)CO)C[C@@H]2C)c1 | -6 | -3 | -2.9
46 | O=C(C[C@@H]1C[C@@H]2c3cc(NC(=O)C4CCOCC4)ccc3O[C@@H]2[C@H](CO)O1)NCc1cccnc1 | 2 | 6 | -4.0
47 | CN(C)C(=O)C[C@@H]1C[C@@H]2c3cc(NC(=O)CC4CC4)ccc3O[C@@H]2[C@@H](CO)O1 | 7 | 7 | 0.4
48 | CNC[C@H]1Oc2ccc(NS(=O)(=O)c3cccs3)cc2C(=O)N([C@@H](C)CO)C[C@@H]1C | 5 | 4 | 0.8
49 | Cc1ccccc1-c1ccc([C@H]2[C@H]3CN(S(=O)(=O)c4ccc(F)cc4)CCCCN3[C@H]2CO)cc1 | ? | · | ·
50 | COC(=O)C[C@H]1CC[C@H](N)[C@@H](CO)O1 | -4 | -3 | -1.4
51 | COCC(=O)N1[C@H](CO)[C@@H]2c3ccccc3N(C(=O)c3ccncc3)C[C@@H]21 | 4 | 3 | 0.7
52 | COCC(=O)N1C[C@@H](C)[C@@H](OC)CN(C)C(=O)c2cc(NC(=O)c3ccc(OC)cc3)ccc2OC[C@@H]1C | -3 | -2 | -1.6
53 | CCC(=O)N1CC(=O)N2[C@H](CO)[C@@H](c3ccc(C#Cc4cccc(F)c4)cc3)[C@H]2C1 | 7 | 7 | -0.1
54 | COc1ccc2c3c(n(C)c2c1)[C@H](CO)N(Cc1ccc2c(c1)OCO2)CC31CCN(C(=O)C2CC2)CC1 | ? | · | ·
55 | Cc1noc(C)c1S(=O)(=O)N(C)C[C@H]1OCc2ccccc2-c2c(n(C)c3ccccc23)C(=O)N([C@@H](C)CO)C[C@@H]1C | -7 | -4 | -2.9
56 | CS(=O)(=O)N1CCCCN2[C@H](CO)[C@@H](c3ccc(Br)cc3)[C@H]2C1 | 19 | 20 | -1.3
57 | CC(C)NC(=O)NC[C@H]1[C@H](c2ccccc2)[C@H](CO)N1C(=O)c1ccccc1 | 2 | -3 | 4.9
58 | CCCNC(=O)N1CC(=O)N2[C@H](CO)[C@H](c3ccc(-c4ccc(F)cc4)cc3)[C@@H]2C1 | 4 | 2 | 2.5
59 | COC(=O)C[C@H]1CC[C@@H]2[C@H](COc3ccc(NC(=O)Nc4cccc(F)c4)cc3C(=O)N2C)O1 | 6 | 7 | -0.5
60 | CCC(=O)N1CCCCN2[C@H](C1)[C@@H](c1ccc(-c3cccc(C(=O)N(C)C)c3)cc1)[C@@H]2CO | 30 | 5 | 25

nr | mol | DUX4 txn inh | DUX4 txn inh difference | DUX4 txn inh control
61 | CCNC(=O)C[C@H]1CC[C@H]2[C@@H](COC[C@@H](O)CN2C(=O)c2cc(Cl)cc(Cl)c2)O1 | -1 | 6 | -7.4
62 | C[C@@H](NC(=O)C[C@H]1C[C@@H]2c3cc(N(C)C)ccc3O[C@@H]2[C@@H](CO)O1)c1ccccc1 | -4 | -4 | 0.8
63 | O=C(Nc1ccccc1F)N1[C@@H]2CNc3ccccc3[C@@H]2[C@@H]1CO | 1 | 13 | -12
64 | COc1cccc(-c2ccc3c(c2)[C@@H]2[C@@H](CCN2S(=O)(=O)c2ccccc2OC)[C@H](CO)N3)c1 | ? | · | ·
65 | COc1ccc2c3c(n(C)c2c1)[C@@H](CO)N(C(=O)NC(C)C)CC31CN(C(C)=O)C1 | 8 | 3 | 5.0
66 | CCN(C[C@@H]1[C@@H](c2ccccc2)[C@@H](CO)N1C(=O)C1CC1)C(=O)NC1CCCC1 | -2 | -7 | 5.4
67 | C[C@H]1CN([C@@H](C)CO)C(=O)c2cccc(NS(=O)(=O)c3cn(C)cn3)c2O[C@@H]1CN(C)C(=O)Nc1ccc(F)cc1 | 1 | -4 | 5.2
68 | COC(=O)N(C)C[C@H]1OCc2ccccc2-c2c(n(C)c3ccccc23)C(=O)N([C@@H](C)CO)C[C@@H]1C | 15 | 17 | -1.9
69 | C/C=C/c1ccc([C@H]2[C@@H](CO)N(C(=O)CC)C23CN(S(=O)(=O)CC)C3)cc1 | 5 | 6 | -0.7
70 | CC(C)[C@@H]1C(=O)N[C@@H](c2ccccc2)CC=CC[C@@H](C)Oc2ccccc2C(=O)N1C (mixture of isomers) | 1 | 1 | -0.4
71 | CN1[C@@H]2c3ccc(C4=CCCC4)c(=O)n3C[C@H]1[C@H](CO)[C@H]2C(=O)N1CCOCC1 | 2 | 5 | -2.7
72 | CO[C@H]1CN(C)C(=O)c2ccc(NC(=O)Nc3c(C)noc3C)cc2OC[C@@H](C)N(CCC(F)(F)F)C[C@@H]1C | 3 | 4 | -0.6
73 | C[C@@H]1CN([C@@H](C)CO)C(=O)c2cc(N(C)C)ccc2O[C@H]1CN(C)C(=O)Nc1cccc2ccccc12 | -4 | -11 | 6.6
74 | CS(=O)(=O)N1CC(=O)N2[C@H](CO)[C@H](c3ccc(C#CC4CCCC4)cc3)[C@H]2C1 | 0 | 8 | -8.0
75 | CCS(=O)(=O)N1[C@H](C#N)[C@H](c2ccc(C#Cc3ccccc3F)cc2)[C@@H]1CO | 0 | 0 | 0.6

Reprinted at random: three records from the list, in no set order.
nr | mol | DUX4 txn inh | DUX4 txn inh difference | DUX4 txn inh control
62 | C[C@@H](NC(=O)C[C@H]1C[C@@H]2c3cc(N(C)C)ccc3O[C@@H]2[C@@H](CO)O1)c1ccccc1 | -4 | -4 | 0.8
71 | CN1[C@@H]2c3ccc(C4=CCCC4)c(=O)n3C[C@H]1[C@H](CO)[C@H]2C(=O)N1CCOCC1 | 2 | 5 | -2.7
75 | CCS(=O)(=O)N1[C@H](C#N)[C@H](c2ccc(C#Cc3ccccc3F)cc2)[C@@H]1CO | 0 | 0 | 0.6
